Beta cell apopt: blocks beta cell apoptosis. INS-1E cytokine-induced death, ATP luminescence, 48 h; percent of positive-control rescue, neutral wells zero. actives 0.8% (n = 300,000). protection from apoptosis, % (no concentration beside the values). AID 435005;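 active = all replicates at 75% or more, or half of them and the mean; inconclusive = half reach 75% but not the mean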;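 note: 0% = cytokine-treated negative control wells and 100% = positive control rescue; higher means more ATP so stronger rescue from cytokine killing; wells of about 40 µL received 100 nL stock; the first replicate is given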
ALR H2O2 inh: human ALR oxidase inhibition via reduced H2O2; P55789; purified ALR, DTT oxidation, H2O2 HRP-luminol luminescence; inhibition, % (test concentration not listed); actives 3.8% (n = 290,000); AID 485317;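 active = mean and each replicate at 75% or more; inconclusive = only one of the two met; inactive = neither met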;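 note: stock transfer was 7.5 nL into about 7.5 µL; 0% = neutral wells and 100% = wells with inactivated enzyme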
Target sequence (P55789 whole entry, looked up): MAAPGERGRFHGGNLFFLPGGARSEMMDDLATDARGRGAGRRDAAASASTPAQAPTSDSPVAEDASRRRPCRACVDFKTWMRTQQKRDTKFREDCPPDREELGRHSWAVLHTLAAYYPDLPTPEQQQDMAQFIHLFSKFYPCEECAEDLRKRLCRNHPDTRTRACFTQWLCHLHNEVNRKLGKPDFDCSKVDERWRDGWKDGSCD
LANA-H2B inh: blocks KSHV LANA binding to histone H2A/H2B; Q9QR71; cell-free LANA-H2A/H2B peptide, fluorescence polarization; inhibition, % (concentration not given with the values); actives 0.6% (n = 320,000); in the data active = inhibition mostly above about 10%, no sharp cut-off; inactive = mostly below about 6.7%;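 note: stock transfer was 7.5 nL into about 10 µL; 0% = median of vehicle wells and 100% = median of positive control wells; one replicate is shown; the record names a cut of 25% in any replicate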
rRNA inh HTS: inhibits bacterial ribosomal RNA function over humanized ribosomes; GFP signal change (wild-type ribosome), % (no concentration beside the values); actives 1.6% (n = 350,000); E. coli WT GFP vs humanized-ribosome RFP mutants, fluorescence, 24 h; stronger effect = lower value; DMSO median 0, no signal -100; AID 720706;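 active = significant combined selectivity score with lowered wild-type GFP, culture density cut under 30%, mutant RFP and density less affected; inactive = any of these conditions unmet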; note: one replicate is shown; some compounds called inactive have numbers as strong as hits
Bfl-1 A1 inh: inhibitors of the anti-apoptotic protein A1, read as caspase activation; caspase activation, % (test concentration not listed); actives 0.066% (n = 330,000); MEF A1-2A-BIM cells, Caspase-Glo 3/7 luminescence, 3 h; percent of clofoctol response, vehicle zero;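 active = over half of replicate activation scores above 10%, or exactly half above 10 with the replicate mean above 10; inconclusive = replicate mean below 10 yet half the replicates above 10; inactive = over half of replicates below 10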;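 note: wells of about 30 µL received 50 nL stock; many hits fall short of the cut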
B2AR ag: activates human beta-2 adrenergic receptor causing internalization; response, % (concentration not given with the values); actives 0.43% (n = 340,000); Am2.2-beta2AR cells, FAP receptor internalization, flow cytometry; reference of the scale not given here;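 active = response above a set limit, near 3 SD of response in nonfluorescent compounds, cut at about 42% in these data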;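 note: stock transfer was 100 nL into about 11 µL; a reference agonist was the positive control; negative values mostly stem from fluorescent compounds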
Target sequence (P07550 whole entry, looked up): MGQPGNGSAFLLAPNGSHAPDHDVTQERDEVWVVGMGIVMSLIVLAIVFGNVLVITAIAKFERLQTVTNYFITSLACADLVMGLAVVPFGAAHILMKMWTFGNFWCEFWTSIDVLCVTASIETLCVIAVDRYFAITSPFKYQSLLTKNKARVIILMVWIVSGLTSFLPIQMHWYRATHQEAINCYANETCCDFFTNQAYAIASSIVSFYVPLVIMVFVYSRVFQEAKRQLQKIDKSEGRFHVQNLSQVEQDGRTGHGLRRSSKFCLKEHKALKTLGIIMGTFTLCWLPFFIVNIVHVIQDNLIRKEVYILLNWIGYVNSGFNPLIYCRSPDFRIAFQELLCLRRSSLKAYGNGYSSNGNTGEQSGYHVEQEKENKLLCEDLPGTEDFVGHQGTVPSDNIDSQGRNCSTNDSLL
T cruzi repl: T. cruzi replication inhibition. inhibition, % (concentration not given with the values). T. cruzi beta-gal in NIH3T3, luminescence, 90 h. AID 1885. actives 1.4% (n = 300,000);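 active = mean inhibition across valid replicates above about 55%, limit read from the data; inconclusive = mean below that limit but half or more replicates reach it; inactive = mean below it, under half of replicates reach it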;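 note: signal also drops with host cell toxicity which is not excluded here; 0% = plate median of DMSO wells and 100% = zero luminescence signal; higher percent means less beta-gal luminescence so fewer parasites; stock transfer was 50 nL into about 50 µL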
Calb FLC: C. albicans growth modulation with fluconazole; C. albicans CaCi-2 (fluconazole-resistant clinical isolate) + fluconazole, Alamar Blue growth, 48 h; growth inhibition, % (concentration not given with the values); actives 0.57% (n = 300,000); AID 1979;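 active = most replicates above 75%; inconclusive = exactly half above 75%; inactive = most below 75%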;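 note: all wells also contain fluconazole at 8 µg/ml as a sub-toxic cotreatment; 0% = median of DMSO wells and 100% = median of geldanamycin control wells; wells of about 8 µL received 7.5 nL stock; the first replicate is given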
rRNA inh HTS OD600: further read-out of rRNA inh HTS, marked with its call; OD600 change, %; measured here: OD600 growth;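 optical density of the mix in the first replicate; 0 = DMSO median and -100 = no signal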
rRNA inh HTS RFP: further read-out of rRNA inh HTS, marked with its call; RFP signal change, %; measured here: RFP humanized mutant strains;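 first replicate; 0 = DMSO median and -100 = no signal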
* marks the source's active call; other numbers are inactive results; i = inactive; ? = inconclusive; / = not tested or not shown; & = joins results of further samples. The list is partial; count on the stated rates, not on these rows.

SMILES | Beta cell apopt | ALR H2O2 inh | LANA-H2B inh | rRNA inh HTS | rRNA inh HTS OD600 | rRNA inh HTS RFP | Bfl-1 A1 inh | B2AR ag | T cruzi repl | Calb FLC
CCN(CC)C(=O)C1CCCN(c2ccc([N+](=O)[O-])cc2)C1 (stereo not drawn) | -5 | / | -7.9 | -12 | -15 | -2.5 | 0.1 | 3 | -3 | -6
COc1ccc(-n2cnc3c(cnn3CCC#N)c2=N)cc1 | -1 | -1 | 5.2 | / | / | / | 1.6 | -4 | 0 | 1
CCOc1cc2[nH]c(=O)n(CCC(=O)NCc3ccc(OC)cc3)c(=O)c2cc1OCC | / | -3 | 0.7 | / | / | / | 0.0 | -2 | -1 | -9
C[C@H](CO)N1C[C@H](C)[C@@H](CN(C)C(=O)Nc2ccc(C(F)(F)F)cc2)Oc2ccc(NS(=O)(=O)c3cccs3)cc2C1=O | -1 | -6 | -3.1 | -9&-9 | -10&2 | -0.7&0.4 | 2.0 | -2 | / | /
COc1ccc(C)c2sc(=NC(=O)c3ccccc3)n(C)c12 | 12 | / | 4.9 | 1 | 13 | -4.1 | -7.2 | 4 | 9 | 1
COC(=O)CS(=O)(=O)c1cc(Br)cc2c1N(C(C)=O)CC2 | 0 | -20 | 1.8 | / | / | / | 1.3 | 7 | -8 | 3
COc1cc(C(=O)NCCC(C)C)ccc1OCc1ccc(Cl)cc1Cl | 18 | -7 | 3.3 | / | / | / | 0.3 | -7 | 70* | 2
CCc1ccc(C2CC(c3ccc(Cl)cc3)=NNC2=O)cc1 (stereo not drawn) | -4 | -32 | 2.2 | / | / | / | -0.3 | 6 | 13 | -2
CCOc1ccc2c(c1)C(=O)C(=O)N2CC1COc2ccccc2O1 (stereo not drawn) | 3 | / | -1.3 | 10 | 12 | -2.1 | -0.6 | 22 | 7 | -20
c1cncc(-c2cccnc2)c1 | -11 | -2 | 0.3 | / | / | / | -0.8 | 0 | -10 | 12
Cc1ccc(NC(=O)COC(=O)c2nn(-c3ccc(Cl)cc3)cc2O)cc1 | 1 | 37 | 2.1 | -10 | -6 | -1.5 | -4.6 | 2 | / | /
CCc1cccc(OCC(=O)Nc2ccc(C(=O)O)cc2NC(=O)COc2cccc(CC)c2)c1 | 0 | 30 | 1.6 | 7 | 16 | -1.1 | -0.1 | 5 | -6 | /
Cc1ccc(CNC(=O)C2CCC(=O)N(CCc3ccc(Cl)cc3)C2)cc1 (stereo not drawn) | / | 2 | -2.3 | 3 | 1 | 3.7 | -0.3 | 0 | 11 | -2
COc1ccc(NC(=O)Cn2cc(S(=O)(=O)Cc3ccccc3)c3ccccc32)c(OC)c1 | -9 | -14 | 1.9 | 14 | 3 | 3.9 | 0.2 | -2 | 2 | 10
O=c1[nH]c(Nc2ccccc2)cc2ccccc12 | -1 | 6 | 6.8 | / | / | / | 1.0 | -25 | 2 | 17
C[C@H](CO)N1C[C@H](C)[C@@H](CN(C)C(=O)Nc2ccc(C(F)(F)F)cc2)Oc2c(NC(=O)C3CCCCC3)cccc2C1=O | 2 | 1 | i | -5&2 | 11&-2 | 0.3&0.3 | 0.8 | -9 | / | /
COc1ccc(N(CC(=O)Nc2cccc(C(C)=O)c2)S(C)(=O)=O)cc1OC | 5 | 3 | -0.5 | / | / | / | 0.8 | -8 | 0 | 0
CCC(=O)Nc1ccc(/C(C)=N/NC(=O)c2c(-c3ccccc3Cl)noc2C)cc1 | 1 | 0 | -2.7 | -1 | 3 | -11 | -0.1 | -4 | -26 | -1
C=CCN1C=C2C(=O)C(C)(OC(=O)CCC(=O)OC)C(=O)C=C2C=C1C1CC1 (stereo not drawn) | -3 | -24 | 3.0 | 2 | 7 | 9.8 | 0.1 | -1 | 4 | 6
COc1ccccc1NS(=O)(=O)c1cc(NC(=O)C(C)NC(N)=O)ccc1N1CCCC1 (stereo not drawn) | 1 | -41 | 2.3 | -7 | -12 | 1.5 | -0.6 | 0 | / | /
CC(C)C(=O)Nc1cccc(C(=O)Nc2cc([N+](=O)[O-])ccc2Cl)c1 | -4 | 3 | -4.0 | 2 | 4 | -0.8 | -1.7 | 1 | 5 | -13
CCOc1cc(N2CCOCC2)c(OCC)cc1NC(=O)CN1C(=O)NC(Cc2ccccc2)C1=O (stereo not drawn) | -2 | -19 | 0.6 | / | / | / | ? | -2 | 1 | 7
c1ccc(-c2csc(-c3cccnc3)n2)cc1 | -2 | 34 | -0.5 | -21 | -20 | -2.7 | 0.1 | -7 | -15 | -12
O=S(=O)(Cc1ccc(Cl)cc1)Nc1ccc(Cl)cn1 | -2 | 5 | -1.3 | 10 | 8 | 2.6 | 0.3 | 9 | 0 | 32
CCO[C@H]1OC(C(=O)N2CCN(C)CC2)=C[C@@H](c2ccc(C(F)(F)F)cc2)[C@@H]1CCCO | -3 | 8 | 4.0 | 0 | -7 | 16 | -6.6 | -3 | -14 | -3
CC(C)C1C(=O)CC(c2ccccc2)NC1c1ccccc1 (stereo not drawn) | 4 | -22 | -5.2 | 23 | 9 | 0.1 | -0.2 | 8 | 6 | -12
COc1ccc(CN2CCC(C(=O)NCCc3ccc(OC)c(OC)c3)CC2)c(OC)c1 | 2 | -4 | -1.7 | / | / | / | 0.9 | 4 | -2 | 10
C#CCNC(=O)C1=C[C@@H](c2cn(C(C)=O)c3ccccc23)C[C@@H](OCCCCO)O1 | -4 | -11 | -6.3 | -2 | 2 | -0.2 | 0.5 | -3 | -2 | -5
CCCc1nnc(SCC(=O)NC2CC2)n1C | -1 | 0 | -5.9 | 9 | 10 | -2.5 | -0.4 | 20 | -8 | -5
CC(C)(C)c1ccc(NC(=O)Nc2ccc(OCC(=O)N3CCOCC3)cc2)cc1 | 0 | 1 | 0.9 | -25 | -24 | -4.5 | 0.4 | 3 | 7 | -8
COc1ccccc1-c1cc(C(=O)NC2CCCC2)no1 | 4 | -2 | -1.6 | -8 | -14 | 3.2 | -1.2 | -3 | 6 | -5
CCn1c(Cc2ccccc2)n[nH]c1=S | -7 | 29 | -0.2 | 11 | 16 | -0.1 | 0.5 | -6 | -8 | 5
CCN(Cc1ccccc1)S(=O)(=O)c1ccc2c(c1)NC(=O)CS2 | -5 | -8 | 0.6 | -35* | -20* | 0.7* | 0.0 | -2 | 1 | -10
CCCCN(C(=O)C(C)Oc1ccc(Br)cc1)c1c(N)n(Cc2ccccc2)c(=O)[nH]c1=O (stereo not drawn) | -4 | 0 | 0.3 | 6 | -16 | 1.4 | 0.2 | 6 | 4 | 8
Cc1cccc(N2CCN(C(c3ccccc3)c3nnnn3CC3CCCO3)CC2)c1C (stereo not drawn) | / | -2 | -1.8 | / | / | / | 0.3 | 4 | 16 | 5
CCOc1ccc2c(c1)-c1c(ssc1=S)C(C)(C)N2 | 7 | 44 | -4.6 | / | / | / | -0.7 | 3 | 50 | 30
CCN(CC)CCNC(=S)NC(=O)c1cn(-c2ccccc2)nc1-c1ccc(OC)cc1 | -7 | 1 | -0.9 | -22 | -23 | 1.3 | 1.7 | 1 | 17 | -5
COc1ccc(C(=O)NCCn2cc(SCC(=O)NCC3CCCO3)c3ccccc32)cc1OC (stereo not drawn) | 10 | -18 | 1.5 | 1 | -1 | 1.2 | 0.5 | -1 | 6 | 2
CCc1c(-c2n[nH]c(=S)n2Cc2ccccc2)csc1C | 3 | 13 | 1.2 | / | / | / | 0.1 | -12 | 6 | 47
CCC(=O)Nc1c(-c2ccc(C)cc2)nc2ccc(C)cn12 | -4 | -9 | 2.9 | 2 | 9 | -1.5 | 1.4 | 6 | -4 | -24
Cc1scc(C(=O)NNC(=O)CCC(=O)O)c1C | -4 | -7 | 1.6 | / | / | / | -0.2 | 16 | -6 | 2
O=C(O)COc1ccc(C(=O)Cc2ccc3c(c2)OCCCO3)c(O)c1 | -7 | 2 | -16 | 4 | 5 | -0.8 | -0.2 | 5 | -5 | 11
CCc1ccccc1NC(=S)N(Cc1cccs1)C1CCCC1 | -1 | 14 | 0.9 | -4 | 2 | 7.4 | 0.9 | -4 | -13 | 13
Cc1ccc(C)c(NC(=O)CSc2nc3ccc(N4C(=O)c5ccccc5C4=O)cc3s2)c1 | -4 | 86* | -0.9 | / | / | / | 1.0 | -11 | 2 | -9
COc1ccc(OC)c(NC(=O)C(=O)NCc2ccncc2)c1 | -12 | -18 | 4.5 | 11 | 1 | -0.4 | 0.4 | 3 | -3 | -18
NC(=O)c1ccsc1NC(=O)COC(=O)/C=C/c1ccccc1 | -14 | 22 | 1.9 | -14 | -19 | 5.0 | -0.8 | 14 | -5 | /
Cc1nc2sc(C(c3cccc(F)c3)N3CCOCC3)c(O)n2n1 (stereo not drawn) | -1 | -5 | 2.0 | / | / | / | -1.3 | 13 | 3 | 17
CCOC(=O)c1[nH]c2ccccc2c1NC(=O)C(CC)CC | / | -10 | -1.0 | 14 | 15 | 0.7 | 0.2 | -3 | 4 | 6
CC1Cc2ccccc2N1C(=O)Cc1cccs1 (stereo not drawn) | -7 | 2 | 1.6 | -2 | -7 | -0.7 | 0.8 | -11 | -17 | 8
CCCNC(=O)CN1C(=O)NC(CCSC)C1=O (stereo not drawn) | -5 | -9 | -4.6 | 11 | 2 | -0.6 | 0.5 | -3 | -9 | -1
COc1ccc(/C=C/C(=O)OCC(=O)c2c(C)[nH]c3ccccc23)cc1OC | 9 | / | -4.2 | -12 | -18 | -6.5 | 0.1 | -1 | 19 | -1
Cc1ccc(-n2c(SCC(=O)Nc3ccc4cn[nH]c4c3)nnc2-c2ccco2)cc1 | -2 | -6 | -2.1 | / | / | / | -0.1 | 24 | 19 | 2
CCN(CC)Cc1ccc(OC)c(Cl)c1 | -9 | -9 | -0.8 | 15 | -2 | -1.9 | -0.5 | 5 | 21 | 8
COc1ccc(C2=NO[C@@H]3[C@@H]4C[C@@H]([C@H]5C(=O)N(c6ccc7c(c6)OCO7)C(=O)[C@@H]45)[C@H]23)cc1OC | -3 | -128 | 2.7 | 3 | 3 | 5.5 | -0.6 | 3 | -3 | -4
Cc1ccccc1NC(=S)N(Cc1ccccc1)Cc1cccnc1 | -2 | / | 0.2 | -15 | -8 | 1.7 | 0.6 | 0 | 21 | -9
Cc1sc2ncnc(NCc3cccs3)c2c1C | 101* | -3 | 3.5 | / | / | / | -0.8 | -11 | -4 | 39
COc1ccc2cc(C#N)c(SCC(=O)N3CCCC3)nc2c1 | -5 | -4 | -6.8 | -14 | -17 | -3.6 | -0.9 | 1 | 7 | 23
C=CC[C@H](CC(=O)NCCO)C(=O)NCCOC(=O)[C@@H](CC=C)CC(=O)OC(C)(C)C | -4 | 0 | -2.1 | / | / | / | 0.4 | 14 | / | /
O=C(c1cccnc1)N1CCN(S(=O)(=O)c2ccc(Cl)cc2)CC1 | -12 | -11 | -5.1 | / | / | / | 1.1 | 5 | 4 | -14
